Screening results deposited in PubChem by National Center for Advancing Translational Sciences (NCATS).
VACV mCherry inh = vaccinia inhibition (mCherry reporter). Vaccinia virus mCherry reporter infection, fluorescence; about a quarter of the inactives have no number. Potency, µM (titrated, usually from 36.5 µM), for inactives: top-dose activity change, negative = inhibition, usual class: inhibitors. 0.63% of 310,000 active; active = well fitted inhibition curve with a large enough effect; inconclusive = small, poorly fitted or top-dose-only effect; inactive = no such curve, though single readings can be large or run the other way; tested in A549 cells; also: nearly all actives have a fitted effect of over 35% in size; inactives centre near -10
Vaccinia Venus = inhibitors of vaccinia virus (Venus reporter). AID 720580. Vaccinia virus Venus reporter expression, fluorescence. Potency, µM (top dose mostly 36.5 µM), for the others: top-dose activity change, negative = inhibition, most hits filed as inhibitors. 0.46% of 330,000 active; active means well fitted inhibition curve with a large enough effect; inconclusive means small, poorly fitted or top-dose-only effect; inactive means no such curve, though single readings can be large or run the other way; tested in A549 cells; also: nearly all actives have a fitted effect of over 30% in size; inactives centre near -10
An asterisk follows results filed as active; i = inactive; u = inconclusive; x = not tested or not shown; & = joins results of further samples; [ ] = another dose, or the depositor's remark. % is scaled to controls: 0 for no effect and ±100 for the full control effect; potency is read from the fitted curve at half-maximal effect.

The first 5 compounds, ahead of the listing:
Structure | VACV mCherry inh | Vaccinia Venus
COc1ccc(C2(O)CCN(C(=O)c3c(F)cccc3F)CC2)cc1 | i | -7%
NC(=O)c1ccc(/C=N/O)nc1 | i | -7%
CC(C)=CCC[C@H](C)CC1Cc2[nH]c(=S)[nH]c(=O)c2C(c2ccc(Cl)cc2)O1 (stereo not given in full) | -2% | -13%
O=C(C(=O)N1CCN(c2ccccc2)CC1)c1cn(CC(=O)N2CCCCCC2)c2ccccc12 | -23% | -4%
Cc1ccc(/C=C(\CCC(=O)O)c2nc3ccccc3s2)cc1[N+](=O)[O-] | -12% | -14%

The list itself, repeating the preview:
Structure | VACV mCherry inh | Vaccinia Venus
COc1ccc(C2(O)CCN(C(=O)c3c(F)cccc3F)CC2)cc1 | i | -7%
NC(=O)c1ccc(/C=N/O)nc1 | i | -7%
CC(C)=CCC[C@H](C)CC1Cc2[nH]c(=S)[nH]c(=O)c2C(c2ccc(Cl)cc2)O1 (stereo not given in full) | -2% | -13%
O=C(C(=O)N1CCN(c2ccccc2)CC1)c1cn(CC(=O)N2CCCCCC2)c2ccccc12 | -23% | -4%
Cc1ccc(/C=C(\CCC(=O)O)c2nc3ccccc3s2)cc1[N+](=O)[O-] | -12% | -14%
CON | 12% | 19%
COc1ccc(NC(=O)Nc2cccs2)cc1Cl | u | -10%
CCOC(=O)C1=C(CC)Nc2ccccc2N=C1NC(=O)CCN1C(=O)C2CCCCC2C1=O (stereo not given) | i | -4%
Cc1ccc([N+](=O)[O-])cc1S(=O)(=O)N1CCCC1 | -12% | -10%
O=C1C2C3CCC(O3)C2C(=O)N1c1cc(OCC(F)F)cc([N+](=O)[O-])c1 (stereo not given) | -10% | -11%
O=C(Nc1cc(S(=O)(=O)N2CCCC2)ccc1OCC(F)(F)F)c1ccncc1 | i | -10%
O=c1c2oc3ccccc3c2n(Cc2ccccc2)c(=O)n1Cc1ccc2c(c1)OCO2 | i | -11%
CCOC(=O)N1N=C(C)CC1(O)c1ccccc1 (stereo not given) | -14% | -12%
CCn1c(=O)n(CC)c2cc(S(=O)(=O)NCCOc3ccccc3)c(C)cc21 | -15% | -16%
COc1ccccc1NS(=O)(=O)c1cccc(C(=O)NCC(c2ccc(F)cc2)N2CCOCC2)c1 (stereo not given) | u | -20%

Further results
Structure | VACV mCherry inh | Vaccinia Venus
CC(=O)c1ccc(F)c(-c2cc(C)cc3c2OC(CNC(=O)C(C)n2nc(C)cc2C)C3)c1 (stereo not given) | -21% | -1%
Cc1ccc(S(=O)(=O)NCCCCC(NC(=O)OC(C)(C)C)C(=O)O)cc1 (stereo not given) (tested in a mixture with another compound) | x | 1%
CC(CNC(=O)c1ccc2c(c1)OCO2)c1ccc([N+](=O)[O-])cc1 (stereo not given) | -9% | -11%
COC(=O)c1ccc(N(CC(=O)NC2CCCC2)C(=O)CNC(=O)c2cccs2)cc1 | -11% | 0%
O=C(Nc1ccccc1C(=O)N/N=C/c1ccncc1)c1ccccc1 | -18% | -13%
CCC(C(=O)N1CCc2cc(OC)c(OC)cc2C1)c1ccccc1 (stereo not given) | -13% | -10%
CCOC(=O)c1cc2c(=O)n3ccccc3nc2n(C)c1=NC(=O)c1c(-c2c(F)cccc2Cl)noc1C | -10%&-4% | -9%&-5%
CC1CCN(c2c(NCc3ccc(C(=O)N4CCc5ccccc54)cc3)c(=O)c2=O)CC1 | -24% | -28%
COc1cc(C=O)ccc1OC(=O)Nc1ccccc1 | -7%[7.34 µM] | 7%[7.34 µM]
Cn1c(CN2CCOCC2)nnc1SCC(N)=O | -6% | 6%
Cc1ccc(NS(=O)(=O)c2c(C(=O)N3CCCCCC3)c(C)n(C)c2C)c(Cl)c1 | i | -5%
C[C@@H](C(=O)NCC1CCCO1)N1C(=O)N2CCc3c([nH]c4ccccc34)[C@@]2(C)C1=O (stereo not given in full) | -6% | -2%
O=C(CCCN1C(=O)/C(=C/c2ccccc2Cl)SC1=S)NNC(=O)c1ccccc1Cl | 11µM* | u
Cc1ccc2cc(CN(C(=O)c3ccco3)c3ccccc3)c(=O)[nH]c2c1 | x | -22%
Cc1ccc(NC(=O)CN2C(=O)CC(c3ccco3)Sc3ccccc32)cc1Cl (stereo not given) | -3% | -9%

(continued)
Structure | VACV mCherry inh | Vaccinia Venus
O=C(Cn1c(=O)oc2cc(S(=O)(=O)NCc3ccccc3)ccc21)Nc1cccc(F)c1 | i | -6%
Clc1ccc(-c2cc(-c3ccccc3)on2)cc1 | i | -12%
CCCCN(C(=O)c1cc(S(=O)(=O)N2CCOCC2)ccc1F)c1c(N)n(CCCC)c(=O)[nH]c1=O | -17% | -5%
CC(=O)OCCN(C)c1cc(SC(C)C)c2nonc2c1[N+](=O)[O-] | i | -7%
COc1ccccc1C/C(N)=N/OC(=O)c1cccc([N+](=O)[O-])c1 | -11% | -6%
CCn1ccnc1CC1COc2ccccc2O1 (stereo not given) | i | -9%
O=C(NCC1CCCO1)c1cc(-c2ccc(Cl)cc2Cl)on1 (stereo not given) | -27% | -30%
O=C(COC(=O)CCc1c[nH]c2ccccc12)NC(c1ccccc1)c1ccccc1 | 0% | 4%
Cc1c(Cl)cccc1NC(=O)Cn1cc(C(=O)c2cccs2)c2ccccc21 | -28%[7.34 µM] | -30%[7.34 µM]
CCC(C)NC(=O)Cc1ccc(-c2ccccc2)cc1 (stereo not given) | -23% | -9%
O=C(Nc1ccc2cn[nH]c2c1)c1ccc(S(=O)(=O)N2CCOCC2)cc1 | -17% | 11%
COc1ccc(NC2=Nc3cccc4cccc2c34)cc1 | -8% | -23%
CCS(=O)(=O)N1CC(=O)N(c2ccccc2C)C(C)(C(=O)NC2CCCCC2)C1 (stereo not given) | -8% | -7%
Cc1ccc(C)c(N(CC(=O)N(C)C)S(C)(=O)=O)c1 | i | -14%
CC(C)(C)c1ccc(OCCC(=O)Nc2cccc(S(=O)(=O)N3CCCC3)c2)cc1 | u | u

New compounds follow.
Structure | VACV mCherry inh | Vaccinia Venus
O=C(CN1C(=O)NC2(CCc3ccccc32)C1=O)c1ccc(F)c(F)c1 (stereo not given) | -20% | -19%
O=C(CN1C(=O)CCn2nc(-c3ccccc3)cc21)NCc1ccc(Cl)cc1 | -11% | -12%
CN1CCN(Cc2c(O)c(Cl)cc3c(-c4ccccc4)cc(=O)oc23)CC1 | -2% | -16%
CCn1cc(/C=C/C(=O)Nc2ccn(Cc3c(F)c(F)c(F)c(F)c3F)n2)cn1 | -27% | -16%
COc1cc(NC(=O)c2ccc(F)cc2)c(OC)cc1NC(=O)CN1CCCCC1 | -24% | -22%
Cc1cc(C)cc(OC(=O)COc2ccccc2C)c1 | i | 1%
CC(C)(C)NC(=O)C(c1ccncc1)N(C(=O)Cn1nnc(-c2ccc(F)cc2)n1)c1ccccc1F (stereo not given) | -14% | -6%
Cc1ccc2nc(-c3ccc(NS(=O)(=O)c4ccccc4)cc3)sc2c1 | u | -13%
CCCCc1cc(=O)oc2cc(C)cc(OCC(=O)N3CCC(C(=O)O)(c4ccccc4)CC3)c12 | 6% | -3%
COc1cccc(C(=O)Nc2cccc(C(=O)OCc3cc(=O)n4c5c(sc4n3)CCCC5)c2)c1 | -14% | -13%
CCOc1ccc(NC(=O)COc2ccc(C(=O)NCC3CCCO3)cc2OC)cc1 (stereo not given) | -15% | -7%
O=c1[nH][nH]c2c1C(c1ccc(Cl)c(Cl)c1)OC(CCc1ccccc1)C2 (stereo not given) | -24% | -19%
O=C(Cn1c(-c2ccccc2)noc1=O)N1CCC(Cc2ccccc2)CC1 | -18% | -9%
O=C(NCCCN1CCOCC1)c1onc(CSc2ccncc2)c1C(=O)NCCCN1CCOCC1 | -20% | -9%
CCOC(=O)c1nnn(-c2nonc2-n2cccc2)c1CCl | x | -2%

Continuation.
Structure | VACV mCherry inh | Vaccinia Venus
COc1ccc(OCC2c3cc(OC)c(OC)cc3CCN2C(=O)c2c(F)cccc2F)cc1 (stereo not given) | -6% | -5%
CN1CCN(C(=O)COc2ccc(N(C)S(=O)(=O)c3ccc(F)cc3)cc2)CC1 | -6% | -6%
Cc1ccc(/C=C2\C(=N)N3N=C(CC(=O)N4CCOCC4)SC3=NC2=O)o1 | -10% | -7%
O=C(CSc1nnc(Nc2ccccc2)s1)NCc1cccs1 | -8% | -5%
CC1CC(C)CN(C(=O)C(Cc2ccccc2)n2cccc2)C1 (stereo not given) | -18% | -2%
O=S(=O)(c1cccs1)N1CCN(c2ccnc3cc(Cl)ccc23)CC1 | u | u
Cc1ccc(NC(=O)CCn2c(=O)[nH]c3ccsc3c2=O)cc1F | -7% | 10%
O=Cc1cn(Cc2ccccc2)nc1-c1cccnc1 | i | -2%
CC(=O)OCCN1C(=O)c2ccc(-c3nc4ccccc4c(=O)o3)cc2C1=O | -17% | -6%
C#CCCCCCCCCCCCCCCCC(=O)O | -4%[3.33 µM] | -9%[3.33 µM]
NC(CCc1ccccc1)c1csc(Nc2nccc(C(F)(F)F)n2)n1 (stereo not given) | 10% | -22%
CCOc1ccc2nc(NS(C)(=O)=O)sc2c1 | -9% | u
COn1c(=O)c(=O)n(OC)c2ccccc21 | x | -7%
CCc1ccc(CNC(=O)CCc2nnc(CCc3ccc(OC)cc3)o2)nc1 | i | -6%
CCCCN(C(=S)Nc1ccccc1)C1CCS(=O)(=O)C1 (stereo not given) | x | -14%

Remaining list, next part:
Structure | VACV mCherry inh | Vaccinia Venus
COc1ccc(S(=O)(=O)NCCc2sc(-c3cccnc3)nc2C)cc1 | 4% | 0%
COc1cccc(-c2nnc(SCC(=O)NC3CCS(=O)(=O)C3)n2C)c1 (stereo not given) | -10% | -4%
Cc1cnc(-n2ncc(C(=O)N3CCN(C(C)C)CC3)c2-c2ccco2)nc1-c1ccc(F)cc1 | -14% | -10%
O=C(CSc1ncnc2scc(-c3ccccc3)c12)N1CCN(Cc2ccc3c(c2)OCO3)CC1 | 37%[activator] | 16%
COc1cccc(C(=O)COC(=O)C2CC3CCCC(C2)C3=O)c1 (stereo not given) | -5% | -2%
Cc1cc(C)c(NC(=O)CN(C)S(=O)(=O)c2ccc3c(c2)CCC(=O)N3)c(C)c1 | -14% | -6%
COCCN(C(=O)CCC(=O)Nc1ccccn1)C(C(=O)NC(C)C)c1ccc(C)cc1 (stereo not given) | i | -8%
O=C(CCc1ccc(S(=O)(=O)N2CCOCC2)cc1)Nc1ccc(N2CCOCC2)cc1 | -3% | -2%
CC(C)C1CCN(C(=O)C2CCC(=O)N(C3CCCCCC3)C2)CC1 (stereo not given) | -22% | -22%
CCN(c1ccccc1)S(=O)(=O)c1ccc(Cl)c(NC(=O)COC(=O)C2CC2C)c1 (stereo not given) | -30% | -10%
O=c1c2ccccc2n(Cc2cccc(F)c2)c(=O)n1C1CCCC1 | x | 2%
Cc1ccc2nsnc2c1S(=O)(=O)NCc1ccncc1 | 0%[1.46 µM] | -1%
CC(C)(C)C1CCC2(CC1)NC(=S)N(c1ccccc1)N2 (stereo not given) | -23% | -13%
COc1ccc(C2=Nc3ccccc3NC(=O)C2N(CCc2ccccc2)C(=O)c2cccs2)cc1 (stereo not given) | 4% | -13%
O=C(C(=O)c1cc(Br)ccc1O)c1cc(Br)ccc1O | u | u

Continuation.
Structure | VACV mCherry inh | Vaccinia Venus
O=C(CCCC(=O)N(CC(=O)NC1CCCC1)Cc1ccc(F)cc1)Nc1ccccn1 | x | -5%
COC(=O)C1=C(C)N(c2cccc(C(C)=O)c2)C(=O)C1 | -11% | -5%
CSc1nc(=O)n2cc(C)ccc2n1 | -7% | 2%
C/C(=N\NC(=O)c1cccc(S(=O)(=O)Nc2cccc(Cl)c2)c1)c1cccs1 | i | -20%
COc1ccc(-c2cc(C(=O)NNC(=O)c3csc(N4CCOCC4)n3)c3ccccc3n2)cc1OC | u | -1%
C=CCSc1cc(C)nc2c(-c3ccccc3)c(C)nn12 | 7%[7.34 µM] | 1%[7.34 µM]
CCN1C=C(C(C)=O)C(=O)CC1 | i | -3%
CC(=O)OCC1=C(C(=O)O)N2C(=O)[C@@H](NC(=O)Cc3ccccc3)[C@H]2SC1 | 28% | 3%
O=[N+]([O-])c1ccc(-c2nn(-c3ccccc3)cc2/C=N/n2c(-c3cccs3)n[nH]c2=S)cc1 | -3% | -23%
CC1(C(=O)Nc2ccc3c(c2)OCCO3)CCC(=O)N1CCc1c[nH]c2ccccc12 (stereo not given) | 16% | -10%
N#C/C(=C/c1ccc(N2CCOCC2)c([N+](=O)[O-])c1)C(N)=O | -18% | -10%
Cc1cc(C)cc(OCC(=O)OC/C(O)=C(\C#N)c2nc3ccccc3[nH]2)c1 | 8% | -5%
CC(C)N(Cc1ccccc1)S(=O)(=O)c1ccc(F)cc1 | -12% | 1%

Another view of some results above.
COC(=O)C1=C(C)N(c2cccc(C(C)=O)c2)C(=O)C1
  VACV mCherry inh: -11%	Vaccinia Venus: -5%
CSc1nc(=O)n2cc(C)ccc2n1
  VACV mCherry inh: -7%	Vaccinia Venus: 2%
CCN1C=C(C(C)=O)C(=O)CC1
  VACV mCherry inh: i	Vaccinia Venus: -3%
CC(C)N(Cc1ccccc1)S(=O)(=O)c1ccc(F)cc1
  VACV mCherry inh: -12%	Vaccinia Venus: 1%
